AF4-AF9 inh: inhibitors of human MLL-AF4/AF9 interaction | P42568 | AlphaScreen, biotin-AF4 peptide binding to FLAG-AF9 | inhibition, % at 10 µM | 350,000 tested, 0.47% active;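 active = every replicate reaching a set inhibition limit, whatever the replicate mean, cut at about 25% in these data; inconclusive = mean inhibition reaches that limit but some replicates miss it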;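 also: 0% = plate neutral control median and 100% = total signal loss; the record names both 10 and 1 µM as test concentration; the first replicate is given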
Target sequence (P42568 whole entry, looked up): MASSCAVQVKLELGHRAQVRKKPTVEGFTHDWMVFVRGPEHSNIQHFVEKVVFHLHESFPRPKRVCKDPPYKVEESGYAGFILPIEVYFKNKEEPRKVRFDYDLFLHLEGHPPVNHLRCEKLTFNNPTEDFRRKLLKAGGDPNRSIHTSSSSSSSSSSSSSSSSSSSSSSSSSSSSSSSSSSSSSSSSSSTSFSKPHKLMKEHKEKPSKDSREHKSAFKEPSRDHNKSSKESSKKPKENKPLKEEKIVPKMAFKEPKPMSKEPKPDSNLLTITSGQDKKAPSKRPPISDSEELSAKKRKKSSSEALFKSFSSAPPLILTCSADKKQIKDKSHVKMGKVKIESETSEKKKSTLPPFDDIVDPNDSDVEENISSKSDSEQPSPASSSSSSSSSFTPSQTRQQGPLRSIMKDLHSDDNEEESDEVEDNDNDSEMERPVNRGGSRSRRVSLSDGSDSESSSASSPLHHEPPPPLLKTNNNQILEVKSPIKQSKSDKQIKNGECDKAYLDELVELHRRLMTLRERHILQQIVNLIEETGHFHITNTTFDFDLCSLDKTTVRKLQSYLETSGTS
Calb FLC: affects C. albicans growth with fluconazole; C. albicans CaCi-2 (fluconazole-resistant clinical isolate) + fluconazole, Alamar Blue growth, 48 h; growth inhibition, % (test concentration not listed); 300,000 tested, 0.57% active;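 active = most replicates above 75%; inconclusive = exactly half above 75%; inactive = most below 75%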;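 also: all wells also contain fluconazole at 8 µg/ml as a sub-toxic cotreatment; 0% = median of DMSO wells and 100% = median of geldanamycin control wells; wells of about 8 µL received 7.5 nL stock; the first replicate is given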
Ecoli rRNA inh: inhibits bacterial ribosomal RNA function over humanized ribosomes; E. coli WT GFP vs humanized-ribosome RFP mutants, fluorescence, 24 h; active compounds read low; DMSO median 0, no signal -100; GFP signal change (wild-type ribosome), % (test concentration not listed); 350,000 tested, 1.6% active; AID 720706;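 active = significant combined selectivity score with lowered wild-type GFP, culture density cut under 30%, mutant RFP and density less affected; inactive = any of these conditions unmet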; also: one replicate is shown; some compounds called inactive have numbers as strong as hits
T cruzi repl: T. cruzi replication inhibition; 300,000 tested, 1.4% active; inhibition, % (no concentration beside the values); T. cruzi beta-gal in NIH3T3, luminescence, 90 h;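 active = mean inhibition across valid replicates above about 55%, limit read from the data; inconclusive = mean below that limit but half or more replicates reach it; inactive = mean below it, under half of replicates reach it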;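 also: signal also drops with host cell toxicity which is not excluded here; 0% = plate median of DMSO wells and 100% = zero luminescence signal; higher percent means less beta-gal luminescence so fewer parasites; stock transfer was 50 nL into about 50 µL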
Vif TR-FRET: inhibitors of Vif binding to APOBEC3G peptide, primary screen, biochemical, TR-FRET, GST-Vif 1-94, biotin-A3G peptide, dose response retest (AID 1117319); TR-FRET GST-Vif / biotin-A3G peptide binding; higher % means a stronger effect; test concentration not given here; strong numbers were not always called active; inhibition, %, or IC50 in µM where a hit was titrated; 260,000 tested, 0.57% active;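 active = above the screen mean plus three standard deviations and confirmed in dose response; inconclusive = results disagree or hit not tested in dose response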;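 also: Vif residues 1-94 fused to GST binding biotinylated APOBEC3G peptide 110-148; 0% = full assay without inhibitor and 100% = GST in place of GST-Vif; retest series ran down from 100 µM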
A1 inh: inhibitors of the anti-apoptotic protein A1, read as caspase activation | MEF A1-2A-BIM cells, Caspase-Glo 3/7 luminescence, 3 h; percent of clofoctol response, vehicle zero | caspase activation, % (test concentration not listed) | 330,000 tested, 0.066% active;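 active = over half of replicate activation scores above 10%, or exactly half above 10 with the replicate mean above 10; inconclusive = replicate mean below 10 yet half the replicates above 10; inactive = over half of replicates below 10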;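 also: wells of about 30 µL received 50 nL stock; many hits fall short of the cut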
RanGTP-Imp inh: disruptors of Ran-importin-beta complex formation – biochemical, FRET, CFP-Ran, YFP-importin-beta, homogeneous, primary screen; 300,000 tested, 1.1% active; cell-free CFP-Ran/YFP-importin-beta FRET ratio; AID 2216; inhibition, % (no concentration beside the values);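 active = most replicates above 15%; inconclusive = exactly half above 15%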;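 also: 0% = DMSO wells and 100% = Ran loaded with GDP instead of GTP; wells of about 40 µL received 100 nL stock; the first replicate is given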
Beta cell apopt: beta cell apoptosis inhibition. AID 435005. INS-1E cytokine-induced death, ATP luminescence, 48 h; percent of positive-control rescue, neutral wells zero. 300,000 tested, 0.8% active. protection from apoptosis, % (test concentration not listed);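 active = all replicates at 75% or more, or half of them and the mean; inconclusive = half reach 75% but not the mean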;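 also: 0% = cytokine-treated negative control wells and 100% = positive control rescue; higher means more ATP so stronger rescue from cytokine killing; wells of about 40 µL received 100 nL stock; the first replicate is given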
Ecoli rRNA inh OD600: further read-out of Ecoli rRNA inh, marked with its call; OD600 change, %; measured here: OD600 growth;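 optical density of the mix in the first replicate; 0 = DMSO median and -100 = no signal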
Ecoli rRNA inh RFP: further read-out of Ecoli rRNA inh, marked with its call; RFP signal change, %; measured here: RFP humanized mutant strains;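 first replicate; 0 = DMSO median and -100 = no signal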
The depositor's hits bear a star; ? = inconclusive; . = not tested or not shown. A portion of the library; rates above refer to the full screens.

structure	RanGTP-Imp inh	AF4-AF9 inh	T cruzi repl	Ecoli rRNA inh OD600	A1 inh	Beta cell apopt	Ecoli rRNA inh	Vif TR-FRET	Calb FLC	Ecoli rRNA inh RFP
Cc1ccc(C(=O)C(OC(=O)c2cnccn2)c2ccccc2)cc1 (centres undefined)	-0.4	1.7	-4.6	7.9	-0.2	-0.3	10.0	-4.4%	-4.5	4.6
COCCn1c(SCC(=O)c2cccc(OC)c2)nnc1-c1ccco1	-4.9	.	-11.8	.	0.4	2.0	.	?	-0.2	.
C=CCn1c(=O)[nH]c2cc(C(=O)N3CC=C(c4ccccc4)CC3)ccc2c1=O	?	6.1	-4.5	5.3	-0.1	-1.4	7.0	-8.4%	-2.4	0.7
COc1ccc(-c2cc(=O)oc3cc(OCC(=O)NCCCn4ccnc4)ccc23)cc1	-0.8	4.0	-1.0	.	0.6	-7.6	.	.	-1.1	.
COc1ccc(Cl)cc1NS(=O)(=O)c1cccc2cccnc12	-11.0	0.2	6.4	3.4	0.2	-7.5	10.0	2.2%	3.2	0.4
Cc1cccc(NC(=O)CCN2CCCC(C)C2)c1 (centres undefined)	-0.9	3.4	-3.7	9.0	-1.1	-8.3	22.4	.	1.5	2.3
Cc1cc(C=O)c2c(c1)C=CC1(Oc3ccccc3C(=O)N1C)O2 (centres undefined)	-53.6	.	-9.3	.	1.4	-2.5	.	-5.4%	-5.8	.
Cc1ccc(C2(CCNC(C)c3cccs3)CCOC(C(C)C)C2)cc1 (centres undefined)	1.8	1.7	34.3	-14.0	.	.	-15.9	-0.3%	-8.2	2.7
CN(C)CCOc1cccc(Br)c1	-2.5	-0.8	8.6	11.3	0.4	-7.2	18.6	-0.2%	-6.3	-0.7
Cc1nnc(SCC(=O)Nc2ccccc2NC(=O)CSc2nnc(C)s2)s1	2.3	.	-3.7	.	-0.5	-0.6	.	2.5%	-6.4	.
Cc1cc(C)cc(Nc2ncc3c(n2)CC(c2ccco2)CC3=O)c1 (centres undefined)	-2.8	.	4.5	.	0.1	0.8	.	6.84µM*	0.0	.
COc1cccc(CC2(CO)CCCN(CC3=Cc4cc(OC)ccc4OC3)C2)c1 (centres undefined)	-3.0	2.7	41.4	-9.2	0.5	-6.5	-6.9	-3.1%	0.7	4.1
CC(=O)NCC(=O)NC1CC(C)(C)Cc2c1cnn2-c1ccccc1 (centres undefined)	3.3	2.3	-26.9	7.6	-0.8	.	9.2	.	1.6	-0.5
Cc1cc[n+](CC(=O)Nc2cccc(C)c2)cc1	0.2	-2.7	-18.3	12.9	1.2	.	5.6	9.4%	3.6	0.8
CC1CCN(C(=O)C2CCN(S(=O)(=O)c3cc(Cl)ccc3Cl)CC2)CC1	-4.9	-0.5	22.9	-4.1	0.9	2.9	-6.2	3.3%	-20.9	-2.5
Cc1ccc(C(=O)N/N=C\c2ccc[nH]2)cn1	2.3	.	0.4	.	0.7	5.8	.	15.8%	-4.6	.
COC(CNc1nc(SC)nc2sc3c(c12)CCN(C)C3)OC	-1.9	2.2	46.1	8.7	0.4	-2.3	-0.1	-8.2%	-6.9	2.5
COc1nc(N(C)C)nc(N2CC(=O)N(CCNS(=O)(=O)c3ccc(C)cc3)C2=N)n1	-0.3	.	7.2	.	0.0	-1.2	.	.	-15.4	.
CC(C)C1S/C(=N/N=C/c2ccco2)NC1=O (centres undefined)	-1.0	.	0.3	.	0.5	-9.0	.	-1.7%	-5.6	.
CCC1Sc2ccc(S(=O)(=O)CCC(=O)Nc3c(Cl)cc(OC)cc3OC)cc2NC1=O (centres undefined)	1.2	2.5	1.3	5.6	0.5	2.5	-4.4	.	2.2	7.7
Nc1cc(=O)[nH]c(SCC(=O)Nc2cccc(S(=O)(=O)N3CCCCCC3)c2)n1	.	-3.4	.	6.2	-1.1	-0.2	4.4	-5.5%	.	7.4
O=C(c1ccc(=O)oc1)N1CCC(C(O)(c2ccccc2)c2ccccc2)CC1	0.9	-0.6	.	-4.7	-0.2	-11.7	6.7	5.0%	-10.1	0.2
Nc1ccc2nc(SCC(=O)c3ccccc3)sc2c1	0.7	3.3	9.9	9.9	-0.3	7.7	4.3	.	-10.8	-1.1
CCC(=O)Nc1nc2ccc3nc(C)sc3c2s1	3.9	-1.6	-7.6	7.8	-0.2	4.4	-0.5	-2.5%	11.1	-0.7
CN(C)c1ccc(NC(=O)COC(=O)c2ccc3c(c2)OCO3)cc1	.	-3.5	.	8.2	-2.4	-5.1	3.0	-8.1%	.	-1.1
O=C(Cc1ccccc1)N/N=C/c1ccc(OC(=O)/C=C\c2ccco2)cc1	1.1	.	-0.4	.	-1.4	2.4	.	?	-10.4	.
O=C(CN1CCCCC1)N1c2ccccc2Oc2ccccc21	-1.2	.	-4.1	.	0.4	-0.9	.	7.2%	-0.2	.
CCOC(=O)C1CCCN(C(=O)c2ccccc2NC(=O)C2=C(C)OCCS2)C1 (centres undefined)	12.0	2.0	1.4	5.9	-0.1	-0.9	16.0	16.0%	3.3	1.5
c1ccc(C(c2nnnn2Cc2cccs2)N2CCN(C3CCCC3)CC2)cc1 (centres undefined)	3.0	.	-10.0	.	0.9	-8.9	.	3.2%	-2.6	.
CCS(=O)(=O)Nc1ccc(C(=O)c2ccccc2)cc1	-4.5	.	3.1	.	-0.7	-4.9	.	0.4%	-0.1	.

A draw from above in order of length of the SMILES, largest number first.
structure	RanGTP-Imp inh	AF4-AF9 inh	T cruzi repl	Ecoli rRNA inh OD600	A1 inh	Beta cell apopt	Ecoli rRNA inh	Vif TR-FRET	Calb FLC	Ecoli rRNA inh RFP
O=C(Cc1ccccc1)N/N=C/c1ccc(OC(=O)/C=C\c2ccco2)cc1	1.1	.	-0.4	.	-1.4	2.4	.	?	-10.4	.
COC(CNc1nc(SC)nc2sc3c(c12)CCN(C)C3)OC	-1.9	2.2	46.1	8.7	0.4	-2.3	-0.1	-8.2%	-6.9	2.5
Cc1cc[n+](CC(=O)Nc2cccc(C)c2)cc1	0.2	-2.7	-18.3	12.9	1.2	.	5.6	9.4%	3.6	0.8

Additional records follow.
structure	RanGTP-Imp inh	AF4-AF9 inh	T cruzi repl	Ecoli rRNA inh OD600	A1 inh	Beta cell apopt	Ecoli rRNA inh	Vif TR-FRET	Calb FLC	Ecoli rRNA inh RFP
CCN1C(=O)/C(=C2/Sc3ccc(OC)cc3N2C)SC1=Nc1cccc(O)c1	0.1	9.6	48.4	-8.8	0.2	18.3	-5.4	-6.2%	10.8	-5.7
O=C(O)CCn1ncc2ccccc2c1=O	0.0	-1.9	0.0	-2.1	0.3	-3.1	13.6	-0.5%	3.9	4.1
O=C(COC(=O)c1cccnc1Nc1ccccc1F)NCCN1C(=O)CSC1=O	27.4*	-8.6	-10.4	-0.2	-2.0	3.1	-5.5	3.3%	23.5	1.1
CCc1c(C)sc(NC(=O)C2CCCCC2C(=O)O)c1C(N)=O (centres undefined)	4.5	.	-10.2	.	0.4	1.7	.	5.4%	1.6	.
COc1ccc2sc(N(CCN(C)C)C(=O)/C=C/c3cccs3)nc2c1	8.5	33.0*	23.8	-9.4	-0.3	-4.0	-19.7	8.9%	-7.6	18.1
c1ccc2c(c1)OCC(c1nn3cnnc3s1)O2 (centres undefined)	-0.5	.	-13.1	.	-0.8	4.5	.	-2.2%	-1.3	.
O=C1CC/C=C\C[C@@H](CC(=O)N(CCO)Cc2ccccc2)C(=O)NC[C@@H](c2ccccc2)O1	.	-0.5	.	3.0	0.7	-5.3	12.2	.	.	-7.6
COc1ccc(OCC(=O)Nc2nc3ccc(NC(C)=O)cc3s2)cc1	-4.1	0.3	-9.1	5.6	2.2	-3.2	6.0	-5.5%	-7.5	-0.4
COc1ccc(NC(=O)/C(C#N)=C/c2ccc(OCCN3CCOCC3)c(OC)c2)c(OC)c1	?	.	-6.2	.	-0.4	-7.7	.	1.7%	3.8	.
O=C(Nc1ccc(S(=O)(=O)N2CCOCC2)cc1)c1ccc(Cl)s1	0.8	-1.2	13.6	6.4	0.6	2.6	-7.2	-4.4%	7.1	4.2
O=S(=O)(NCCNS(=O)(=O)c1ccc(F)cc1)c1ccc(F)cc1	-4.0	.	-10.8	.	0.3	-17.5	.	-2.6%	-6.6	.
COC(=O)CC(NC(=O)C1CC1)c1ccc2c(c1)OCO2 (centres undefined)	1.4	-0.9	1.4	6.8	-0.4	-0.5	6.6	6.0%	11.7	3.4
COc1ccc(C)cc1NC(=O)CSc1ccc(-c2sc(C)nc2C)nn1	-1.5	-2.0	-4.4	18.7	-0.3	7.6	4.0	-14.7%	-0.7	0.4
S=c1[nH]nc(-c2ccccn2)n1/N=C/c1ccc(Cl)c(Cl)c1	4.9	-1.2	-6.1	12.6	0.0	-1.4	12.9	-5.8%	4.4	0.9
O=C(O)C1C2CC2CN1C(=O)c1ccc(Cl)cc1 (centres undefined)	-2.3	-1.3	-17.3	10.7	-1.2	-0.5	13.6	-5.4%	10.9	4.3
Cc1ccc(NC(=O)CCc2ccc(S(=O)(=O)N3CCOCC3)cc2)c(O)c1	.	0.5	.	1.0	-1.3	-6.3	-2.5	1.4%	.	-0.4
Cc1sc2nc(CC(=O)NN)[nH]c(=O)c2c1C	10.7	.	1.3	6.6	0.6	0.0	8.8	-3.0%	-3.6	1.4
CC(C)CC(OC(=O)c1nsc(Cl)c1Cl)C(=O)NCc1cccs1 (centres undefined)	-3.9	.	-2.1	.	0.0	.	.	-2.2%	-13.0	.
CC(c1nc2ccccc2c(=O)[nH]1)N1CCOCC1 (centres undefined)	-0.2	-1.6	-0.9	21.7	0.5	-2.6	10.0	-1.5%	?	6.1
Cc1cc(C)c(NC(=O)/C(=C/c2ccccc2)c2ccccc2)c(C)c1	-2.2	4.1	2.4	.	1.1	17.1	.	.	15.0	.
CC1=CSC2=NC(=O)/C(=C\c3cccn3-c3ccc([N+](=O)[O-])cc3)C(=N)N12	-3.1	.	11.3	.	0.0	6.4	.	7.5%	21.5	.
CC(C)c1ccc(OCc2ccc(C(=O)NN3CCN(C)CC3)o2)cc1	-2.6	3.3	26.8	-8.5	-0.2	-0.2	7.4	.	36.7	-2.6

Filtered by structure, the compounds so far containing fluorine
structure	RanGTP-Imp inh	AF4-AF9 inh	T cruzi repl	Ecoli rRNA inh OD600	A1 inh	Beta cell apopt	Ecoli rRNA inh	Vif TR-FRET	Calb FLC	Ecoli rRNA inh RFP
O=C(COC(=O)c1cccnc1Nc1ccccc1F)NCCN1C(=O)CSC1=O	27.4*	-8.6	-10.4	-0.2	-2.0	3.1	-5.5	3.3%	23.5	1.1
O=S(=O)(NCCNS(=O)(=O)c1ccc(F)cc1)c1ccc(F)cc1	-4.0	.	-10.8	.	0.3	-17.5	.	-2.6%	-6.6	.

Bioassay records from PubChem.
